Sa RN4220 lethal: growth inhibition of S. aureus RN4220, primary screen, OD600; 16 h; inhibition, % (concentration not given with the values); 330,000 compounds, 0.33% hits;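 active means z-score of -3 or lower and OD600 up to 0.18 on both plates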;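 further: plate controls were untreated cells for no effect and reference antibiotic for full effect; stock transfer was 100 nL into about 80 µL; one replicate is shown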
Bead autofluor: counter-screen for toxin protease inhibitors: compound fluorescence | fluorescence intensity (test concentration not listed) | 360,000 compounds, 3.1% hits | compound autofluorescence counterscreen, microsphere flow cytometry; hits give high values;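 active means at least 3 SD above the mean of all compounds, about 16000 in these data; inconclusive means too few beads counted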;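 further: 100 nL of 1 mM stock went into each well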
PrP UTR inh: inhibition of PrP 5' UTR reporter expression; inhibition, % (concentration not given with the values); 340,000 compounds, 0.35% hits; cell-based PrP 5' UTR mRNA reporter, plate reader;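 active means every replicate at 50% or more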;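 further: 0 = median of the neutral control wells; tested in H4 reporter cells; numbers are from one replicate; inactives centre near -14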
Sa ugtP lethal: growth inhibition of ugtP-null S. aureus, primary screen, RN4220 ugtP deletion, OD600. 16 h; some inactives read as strong as hits. growth inhibition, % (no concentration beside the values). 330,000 compounds, 0.54% hits. AID 1259309, 2017;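 active means z-score under -3 and OD600 up to 0.15 on both plates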;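 further: plate controls were untreated wells for no effect and antibiotic for full effect; wells of about 80 µL received 100 nL stock; the first replicate is given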
Mtb hypoxia rep: PubChem AID 1159583 | M. tuberculosis hypoxia-regulated fluorescent reporter, fluorescence | fluorescence inhibition, % (concentration not given with the values) | 300,000 compounds, 0.1% hits;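 active means 35 to 45% if threefold the growth effect, above 45% if 1.5-fold the growth effect; inactive means the rest, general growth blockers included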;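 further: wells of about 50 µL received 100 nL stock; 0% = vehicle wells and 100% = reference inhibitor wells; whole bacteria with a GFP reporter of the hypoxia response; strong numbers were not always called active; many hits fall short of the cut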
BJeLR viability: MLPCN primary cell-based screen for lethality selective to Ras in HRASV12 cells | 300,000 compounds, 0.17% hits | inhibition, % (concentration not given with the values) | AID 1554, 2009 | BJeLR (HRASV12) viability, CellTiter-Glo ATP luminescence, 48 h; reference of the scale not given here;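 active means replicate mean above 50%; inconclusive means above 50% but judged a plate artefact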;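 further: 50 nL library stock added to about 25 µL; numbers are from one replicate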
Mtb hypoxia rep growth: further read-out of Mtb hypoxia rep, marked with its call; growth inhibition, %; measured here: M. tuberculosis growth (absorbance);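 0% = vehicle and 100% = reference antibiotic; read after six days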
* marks the source's active call; other numbers are inactive results; ? = inconclusive; . = no result given; & = joins results of further samples. Compounds were not picked by outcome; overall some 4.1% were active at least once.

SMILES	Sa RN4220 lethal	Bead autofluor	PrP UTR inh	Sa ugtP lethal	Mtb hypoxia rep	Mtb hypoxia rep growth	BJeLR viability
COc1cccc(/C=N/NC(=O)c2ccccc2)c1OS(=O)(=O)c1ccccc1	.	2490	-8	.	.	.	7
Cc1cccc(C(=O)NCC(=O)OC(C)C(=O)Nc2ccc(Cl)cn2)c1 (stereo not given)	-0.8	11950	-13	0	3	4	-2
CCOc1ccc(NC(=O)COc2ccc3c(c2)OCO3)cc1	1.8	3863	-21	4	5	3	5
Cc1c(C(N)=O)sc2ncn(CC(=O)NCCc3ccccc3)c(=O)c12	5.5	4504	-15	1	10	-2	6
Cc1cc(C(=O)N/N=C/c2ccc([N+](=O)[O-])s2)c2ccccc2n1	.	5689	-12	.	.	.	-14
Cc1ccc(O)c(/C=N/NC(=O)c2[nH]ncc2Br)c1	.	7431	-29	.	.	.	0
CSc1ccccc1NC(=O)c1cnc2sc(C)cn2c1=O	6.6	.	-81	3	8	7	5
CN1CCN(C(=O)c2cccn(Cc3cccc(Cl)c3)c2=O)CC1	3.8	3782	-26	6	1	9	-5
CCOC(=O)Cc1csc(NC(=O)CCSc2ccccc2)n1	4.1	3977	-12	1	6	13	7
C[n+]1cccc(C(=O)N/N=C/c2ccc3c(c2)OCO3)c1	.	5732	9	.	.	.	0
O=C(COC(=O)/C=C/c1ccc(OC(F)F)cc1)NC1CCCCC1	-2.1	5946	-2	-4	-1	3	4
CCCC(C)NC(=O)C1CC(=O)N(CCc2ccc(F)cc2)C1 (stereo not given)	3.8	3801	-11	0	-3	0	-5
COC(=O)c1cc(=O)n(Cc2cccs2)c(=Nc2ccc(F)cc2)s1	.	5699	-25	.	.	.	-2
COc1ccc(NC(=O)N2CCN(S(C)(=O)=O)CC2)cc1	-3.3	4509	-24	-7	-4	-5	7
Cc1nc2ccc(S(=O)(=O)NCC(=O)N3CCC(N4CCCCC4)CC3)cc2s1	-11	3026	-23	-6	2	6	5
Cc1ccnc(NC(=O)c2ccco2)n1	1.9	3936	-24	10	2	5	9
CCOC(=O)C1=C(CS(=O)(=O)c2ccc(F)cc2)NC(=O)NC1c1ccc(O)c(O)c1 (stereo not given)	6.0	4409	7	7	-1	-8	0
CCCCN(C(=O)CSc1nnc(-c2ccc(Cl)cc2)o1)c1c(N)n(CC(C)C)c(=O)[nH]c1=O	27	3231	-1	20	7	0	.
Cc1ccsc1CNC1C2CC3CC(C2)CC1C3 (stereo not given)	-0.3	4302	-15	0	-7	2	-14
O=C(CCCN1C(=O)/C(=C/c2ccccc2Cl)SC1=S)NNC(=O)c1ccncc1	6.1	6315	-12	2	18	0	11
COc1ccccc1C1C(C(=O)c2ccc(C)o2)=C(O)C(=O)N1c1cc(C)on1 (stereo not given)	6.0	4975	-16	4	6	7	-4
C/C(=N\NC(=O)c1ccc(CSc2nncn2C)cc1)c1ccc(C#N)cc1	.	1905	-30	.	.	.	-1
C(=N\n1cnnc1)/C1CCCCC1	.	2422	1	.	.	.	-4
COc1cccc(C(C(=O)NC(C)(C)C)N(Cc2ccc(F)cc2)C(=O)CCC(=O)Nc2cc(C)on2)c1OC (stereo not given)	3.7	3831	-10	0	7	6	-1
O=C(O)c1ccc(NS(=O)(=O)c2cccc(C(=O)Nc3ccc([N+](=O)[O-])cc3)c2)cc1	4.9	4002	-16	9	6	1	3
CCCCCn1cnc2c(sc3nc4c(cc32)CSC(C)(C)C4)c1=O	-3.2	6384	-147	15	6	0	8
Cc1nnc(Nc2ccccc2F)s1	-1.1	6472	-7	-2	-11	6	-5
Cc1nnc(SCC(=O)Nc2cc(-c3cc(C)c(C)cc3C)nn2-c2ccccc2)s1	-2.6	2223	59*	5	4	11	-5
CC1CCC(O)(C(C(=O)O)c2ccccc2)CC1 (stereo not given)	7.5	3650	-2	7	8	3	.
O=[N+]([O-])c1ccccc1/C=N\Nc1nccs1	.	3120	-24	.	.	.	-4
CN1C(=O)c2ccc(NC(=O)c3c(F)c(F)c(F)c(F)c3F)cc2C1=O	17	3005	-12	-8	.	.	9
CCOCCn1c(SCCCc2ccccc2)nc2c1c(=O)[nH]c(=O)n2C	11	3760	-4	3	.	.	-4
Cc1ccc(C)c(-c2nnc(NC(=O)Cc3ccc(F)cc3)o2)c1	0.6	6092	-5	0	-1	-1	-3
COC(=O)c1sccc1NC(=O)Cc1ccc(OC)cc1	6.5	1983	-1	6	1	9	3
O=C(NC1CCCCCC1)c1ccco1	3.9	4319	-21	8	.	.	0
O=S(=O)(NCCC1=CCCCC1)c1ccccc1Br	1.7	.	-19	11	2	-4	.
C/C(=N\N=C\c1ccccc1F)c1nnn(-c2nonc2N)c1C	.	8931	-42	.	.	.	10
COc1ccccc1CN1CCCC(C(=O)N(C)Cc2ccccc2)C1 (stereo not given)	1.1	2699	-8	5	.	.	-2
O=C(Nc1nc2ccccc2[nH]1)c1cc2ccccc2o1	2.6	4272	-43	0	2	2	8
O=C(COC(=O)C1CCN(C(=O)Nc2ccccc2)CC1)NCC(F)(F)F	8.3	4290	-15	10	-6	-1	3

A few values from the list:
Bead autofluor result of O=C(Nc1nc2ccccc2[nH]1)c1cc2ccccc2o1 stands at 4272
Sa ugtP lethal result of Cc1ccc(C)c(-c2nnc(NC(=O)Cc3ccc(F)cc3)o2)c1 stands at 0
PrP UTR inh result of C/C(=N\N=C\c1ccccc1F)c1nnn(-c2nonc2N)c1C stands at -42
Sa ugtP lethal result of O=C(O)c1ccc(NS(=O)(=O)c2cccc(C(=O)Nc3ccc([N+](=O)[O-])cc3)c2)cc1 stands at 9

Next records follow.
SMILES	Sa RN4220 lethal	Bead autofluor	PrP UTR inh	Sa ugtP lethal	Mtb hypoxia rep	Mtb hypoxia rep growth	BJeLR viability
C[C@H]1CN([C@@H](C)CO)C(=O)c2cc(NC(=O)C3CCCCC3)ccc2O[C@H]1CN(C)Cc1ccc(-c2ccccc2)cc1	-13	3383	-8	-16	-8	12	.
CC1(C)CC(C2N3CC4(C)CN2CC(C)(C3)C4=O)CCO1 (stereo not given)	2.3	8131	-14	-2	5	13	-5
CSc1ccccc1C(=O)Nc1cc(C)cc(C)c1	1.8	2436	11	4	12	10	-7
O=C(O)Cc1ccc(N=Cc2c(O)ccc3ccccc23)cc1	10	2657	-8	1	7	0	10
COC(=O)C1=C(C)Nc2nnnn2C1c1ccc(Cl)cc1Cl (stereo not given)	13	2903	-11	-5	8	5	8
CN(C(=O)CSc1nnc(Cc2cccc3ccccc23)n1N)C1CCS(=O)(=O)C1 (stereo not given)	8.9	3258	-31	1	1	4	.
COc1nccnc1NS(=O)(=O)c1ccc(NC=C2CCCCC2=O)cc1	1.0	.	.	0	16	30	.
Cc1ccc(S(=O)(=O)N=C(Nc2nc(C)cc(C)n2)N2CCOCC2)cc1	4.5	.	.	-5	17	6	.
COc1ccc(OC)c(-c2csc(NC(=O)COC(=O)C3CC3)n2)c1	1.1	3738	-15	-2	11	2	.
COc1cccc(CNC(=O)C2CCN(S(=O)(=O)c3ccc(F)cc3)CC2)c1	-17	3215	-22	1	0	3	-3
COc1ccc(CNc2nc(-c3ccccc3)nc3ccccc23)cc1OC	-9.2	4112	-17	0	9	7	-3
COCCNC(=O)Cn1cnc([N+](=O)[O-])n1	.	3257	-27	.	.	.	-7
COc1ccc(-c2nonc2NC(=O)c2oc3ccccc3c2C)cc1OC	-3.9	4311	2	-14	5	-5	-2
CCOC(=O)/C=C1\SCC(=O)N1Cc1nnc(-c2ccccc2Br)o1	2.6	5687	-7	-8	.	.	-6
Cc1ccc(C(OC(=O)c2ccco2)C(=O)NC2CCCC2)cc1 (stereo not given)	9.7	4002	-24	-4	-2	0	-2
COc1ccc(C(=O)Nc2nc(CC(=O)NCCc3ccccc3)cs2)cc1	1.9	6703	-22	7	7	1	-8
Brc1ccc(-c2ccc(/C=N/Nc3nc4ccccc4[nH]3)o2)cc1	.	2683	-99	.	.	.	-2
Cc1ccc2cc(CN(CC3CCCO3)C(=O)C(C)C)c(=O)[nH]c2c1 (stereo not given)	0.5	23042*	0	0	0	0	-2
Cc1ccc(CN2CCCN(Cc3ccccc3C)S2(=O)=O)cc1	0.5	3903	-6	3	-5	-7	-3
Cn1c(=O)c2c(ncn2CC(=O)N2CCN(c3ccc(F)cc3)CC2)n(C)c1=O	0.3	3874	-1	3	10	11	4
CCOc1ccc(N2C(=O)CC(N(CCc3ccccc3)C(=O)/C=C/C(=O)O)C2=O)cc1 (stereo not given)	3.1	3246	-2	12	13	2	1
CCN(CC)CCn1c(NC(=O)c2ccc(C(F)(F)F)cc2)nc2ccccc21	-5.3	4772	-5	5	1	18	-4
COc1c(C(=O)Nc2nccs2)ccc2ccccc12	1.7	3087	-77	-26	-6	2	-1
CC(C)(C)c1cc[n+](C2=C([O-])c3ccccc3C(=O)/C2=N\S(=O)(=O)c2cccs2)cc1	18	5757	.	10	10	10	-7
CCOC(=O)C1CCN(C(=O)C2(NC(=O)Nc3cccc(F)c3)CCCCC2)CC1	-3.8	4482	2	-1	-7	5	2
CCn1nc(C)c(C=NNC(=O)Cn2cncn2)c1C	2.7	.	.	-1	-9	-8	.
CCOc1cc(/C=N/NS(=O)(=O)c2ccc(OC)cc2)ccc1OCCN1CCOCC1	.	2440	2	.	.	.	9
NS(=O)(=O)Cc1noc2ccccc12	.	5040&4581	-7&10	.	.	.	-1
CC1(C)CC(=O)C=C(C(=O)NC2CCCc3c2cnn3-c2cc(F)cc(F)c2)O1 (stereo not given)	.	4401	-9	.	.	.	11
CC(=NCc1cccnc1)c1c(O)n(-c2ccccc2)c(=O)[nH]c1=O	1.1	20066*	-20	7	4	5	5
Nc1c(C(=O)NCc2ccco2)c2nc3ccccc3nc2n1Cc1ccccc1	1.3	2590	-15	-3	8	2	3
Nn1c(SCC(=O)N2CCN(S(=O)(=O)c3ccc(Cl)cc3)CC2)nnc1-c1cccs1	3.2	?	-15	-5	-2	-5	9
CC(C)(C)SCCNC(=O)CSc1ccccc1	4.6	6408	-45	3	19	7	1
CCCCCCSc1ccc([C@H]2N[C@@](Cc3ccccc3)(C(=O)OC)[C@H]3C(=O)N(C)C(=O)[C@@H]23)cc1	.	3875	-5	.	.	.	6
COc1ccc(C(=O)NN=Cc2ccc(OC)c(COc3ccccc3Br)c2)c(OC)c1	-2.8	.	.	-6	-1	8	.
CCOC(=O)C1=CN(C)C=C(C(=O)OCC)C1c1ccsc1	4.3	9481	-26	-5	18	7	23
CSc1ccc(Cl)c(C(=O)OCC(=O)N2CCN(C(=O)c3ccco3)CC2)c1	3.2	8662	1	4	-6	0	.
COc1ccc(S(=O)(=O)Cc2ccc(C(=O)N3CCN(c4ccccc4)CC3)o2)cc1	2.7	5606	-6	6	.	.	0
CCOC(=O)c1cccc(NC(=O)C2CCCN(S(=O)(=O)c3c(C)nn(C)c3C)C2)c1 (stereo not given)	0.0	6845	-8	12	.	.	.
COc1ccc(C/C(N)=N/OC(=O)Cc2ccc(OC)c(OC)c2)cc1	6.4	6149	14	4	8	13	3

Reformatted with bars between the fields: part of the list above.
SMILES | Sa RN4220 lethal | Bead autofluor | PrP UTR inh | Sa ugtP lethal | Mtb hypoxia rep | Mtb hypoxia rep growth | BJeLR viability
COc1ccc(C(=O)NN=Cc2ccc(OC)c(COc3ccccc3Br)c2)c(OC)c1 | -2.8 | . | . | -6 | -1 | 8 | .
CCOC(=O)C1=CN(C)C=C(C(=O)OCC)C1c1ccsc1 | 4.3 | 9481 | -26 | -5 | 18 | 7 | 23

Other results
SMILES	Sa RN4220 lethal	Bead autofluor	PrP UTR inh	Sa ugtP lethal	Mtb hypoxia rep	Mtb hypoxia rep growth	BJeLR viability
COCc1ccc(C(=O)NC2CCCc3c2cnn3-c2ccc(C)c(C)c2)o1 (stereo not given)	0.3	5101	-34	-1	8	11	1
O=C(CSC(=S)N1CCCC1)N(Cc1nnc(-c2ccccc2Cl)o1)C1CC1	8.9	3510	-29	4	9	6	.
O=C(CN1CCN(Cc2ccccc2Cl)CC1)N/N=C/c1ccccn1	.	5545	-12	.	.	.	1
Cc1ccc(-c2ccc(C=N/N=C3/NC(=O)C(CC(=O)O)S3)o2)c([N+](=O)[O-])c1 (stereo not given)	10	.	.	-1	17	6	.
CCOc1ccc(NC(=O)c2ccco2)cc1	4.7	24897*	-107	12	14	6	7
O=C1C2C3CCC(CC3)C2C(=O)N1c1ccccc1 (stereo not given)	2.4	3724	0	2	2	-3	2
C[C@@H](C(=O)NCCCCCC(=O)O)n1nnc2ccccc2c1=O	-0.2	4833	-18	6	1	-14	-4

From PubChem BioAssay
